NPYLR7 ag – agonists of mosquito NPYLR7 receptor, primary screen, cell-based, Aedes aegypti, calcium fluorescence, mosquito biting behavior. 270,000 tested, 0.15% active. HEK293T NPYLR7/Galpha15, GCaMP6s calcium fluorescence. activation, % at 10 µM. AID 1259423, 2018; in the data active = activation above about 40%;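 also: 0% = vehicle and 100% = reference agonist at the receptor; some compounds past the cut are filed as inactive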
NPYLR7 ag max-min – recorded beside NPYLR7 ag, whose call it bears; activation, %; measured here: Max-Min RFU normalised activation; some inactives read as strong as hits;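 span of the calcium signal over five minutes; 0% = vehicle and 100% = native peptide agonist; compound fluorescence can raise it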
An asterisk follows results filed as active; & = joins results of further samples. The list is partial, so the mix of outcomes need not match the whole.

Structure | NPYLR7 ag | NPYLR7 ag max-min
Cc1nc2ncnn2c(C)c1CCC(=O)Nc1nc(-c2ccc(Cl)cc2Cl)cs1 | 0 | 20
Cc1c(-c2nccn2Cc2cccnc2)oc2ccccc12 | 18 | 12
Cc1nn(-c2ccccc2)c(C)c1S(=O)(=O)N1CC[C@H]2CC[C@@H](C1)N2 | 16 | 13
COc1ccccc1N1CCN(c2ccc(NC(=O)c3cc(C(F)(F)F)cc(C(F)(F)F)c3)cc2C(=O)N2CCC(C)CC2)CC1 | -7 | 6
CNC(=O)Cn1c(CO)cnc1SCc1cccc(C(F)(F)F)c1 | 4 | 2
C=C1CC(=O)C2=C(C)C[C@H](OC(=O)OC)C3[C@H](OC(=O)[C@H]3C)C12 (stereo partly specified) | -1 | -1
c1ccc(-n2c(-c3ccc4c(c3)OCCO4)c[n+]3c2SCCC3)cc1 | 5 | 16
C=C(C)C1CC=C(C)CC1 (stereo unspecified) | 0 | -8
CC(C(=O)Nc1ccccc1C#N)N(C)Cc1ccc2ccccc2c1 (stereo unspecified) | 4 | 1
Cc1ccccc1-n1nc2c(c1NC(=O)C13CC4CC(CC(C4)C1)C3)CSC2 | -1 | 3
O=C(/C=C/c1ccccc1)N1CCC(Cc2ccc(F)cc2)CC1 | 2 | 10
CCN1CCC(NC(=O)C2(C)CCCN2C(=O)c2ccccc2)CC1 (stereo unspecified) | 8 | 7
Cc1ccc(OCc2ccc(C(=O)NC3=NCCS3)o2)cc1 | 10 | 3
COc1ccc(Cn2c(C3CCCCC3)nc3oc4cc(OC)ccc4c(=O)c3c2=O)cc1 | 5 | 3
COc1ccc(NC(=O)c2ccc(Nc3nc(-c4ccccc4)c4cc(Br)ccc4n3)cc2)cc1 | 3 | -1
O=C(NC1CCC(n2cnnc2)CC1)c1ccc(-c2ccccc2)[nH]1 (stereo unspecified) | -1 | -5
Cc1c(C)c(C)c(S(=O)(=O)NCC2CN(C)CCO2)c(C)c1C (stereo unspecified) | -7 | -8
Clc1ccc(CCNc2cc(-c3ccccc3)nc3ncnn23)cc1 | -6 | -4
COc1ccc(C2=NN(C(=O)CN3CCC4(CC3)OCCO4)C(c3ccccc3F)C2)cc1 (stereo unspecified) | -3 | 6
Cc1nonc1CN(C)C(=O)c1cn(CC2CCCO2)nn1 (stereo unspecified) | 1 | 0
CCN(CC)C(=O)Oc1ccc2c(ccn2Cc2cc(C)ccc2C)c1-c1cc(C)cc(C)c1 | 13 | 12
Cc1cccc(Cn2cccc2CN(C(=O)CN(CC(C)C)S(=O)(=O)c2cccc(C(F)(F)F)c2)C(C)(C)C)c1 | -12 | -10
O=C(COc1ccc(Cl)cc1)Nc1nnc(SCC(=O)c2cccc(C(F)(F)F)c2)s1 | 1 | 10
CN(C)CCNC(=S)Nc1ccc2c(c1)OCCO2 | 3 | 9
CCCc1c(C(=O)NCCO)nnn1-c1ccc(Cl)cc1 | 3 | 3
CC(C)(C)c1cc2c(=O)[nH]c(C3CC(=O)N(C4CC4)C3)nc2s1 (stereo unspecified) | -4 | -5
Cc1ccsc1CN(Cc1ccccc1)C(=O)CNC1CCCCC1 | -6 | -16
COc1ccccc1NC(=O)C(=O)NCCC1CCCCN1S(=O)(=O)c1ccc(F)cc1C (stereo unspecified) | 13 | 6
COC(=O)C(Cc1ccc(O)cc1)NC(=O)Cc1ccc(C)cc1 (stereo unspecified) | 10 | 7
CC(C)C(=O)N(C)Cc1ccc(C(=O)Nc2ccc(C#N)cn2)cc1 | -4 | -5
COCc1c(C(=O)N(C)c2cccc(C#N)c2)sc2ccccc12 | 1 | 1
CS/C(=N\N=C/c1cccs1)Sc1cc(Cl)ncn1 | -5 | -7
COc1ccc(OC)c(S(=O)(=O)N2CCN(c3cc(S(=O)(=O)NCC4CCCO4)ccc3OC)CC2)c1 (stereo unspecified) | 5 | 5
Cc1ccc2nc(-c3ccc(Cl)cc3)c(NC(C)(C)C)n2c1 | 8 | 6
COc1ccc(C(=O)NC2CCN(c3ccccc3C(=O)N3CCN(c4ccccn4)CC3)CC2)cc1 | 1 | 13
COc1ccc(C)cc1CN1CCN(C(=O)Nc2cccnc2)CC1 | 0&9 | -1&3
Cc1ccccc1-n1c(C(C)N(C)C(=O)CCl)nc2ccccc2c1=O (stereo unspecified) | -3 | 3
NC(=O)C1=CN(C2OC(COP(=O)(O)OP(=O)(O)OC[C@H]3O[C@@H](n4cnc5c(N)ncnc54)C(OP(=O)(O)O)[C@H]3O)C(O)C2O)C=CC1 (stereo partly specified) | 2 | 1
Cc1cccc(-c2nc(-c3ccc(Cl)cc3)no2)c1 | -2 | -9
CCN(CC)C(=O)Cn1cc(SCC(=O)NC(C)(C)C)c2ccccc21 | -3 | -4
COc1ccccc1N=c1oc2c(OC)cccc2cc1C(=O)NC(C)=O | -1 | -5
Cc1cccc(Cn2ccnc2CN(CCN2CCOCC2)C(=O)c2ccc(Cl)cc2)c1 | 2 | 9
Cc1c(C(=O)NC2CC2)c(C(F)(F)F)nn1C1CCCN(C(C)C)C1 (stereo unspecified) | 13 | 6
COc1ccc(NC(=O)CCC2CCCN(Cc3ccc4c(c3)OCCO4)C2)c(C)c1 (stereo unspecified) | 12 | 1
COC[C@H](Cc1ccccc1)NC(=O)c1ccc(N2CCNC(c3ccccc3)C2)nc1 (stereo partly specified) | 1 | 3
CCCCC(CC)C(=O)NCC(C)NC(=O)C(CC)CCCC (stereo unspecified) | 0 | 6
CC(=O)Nc1ccc(S(=O)(=O)Oc2ccc(Cl)cc2CN(CC2CCCO2)C(=O)c2cccc(F)c2)cc1 (stereo unspecified) | 8 | 18
Cc1ccc(-c2csc(=O)n2Cc2cc(=O)n(C)c(=O)n2C)cc1 | 6 | 4

Copied from the list:
Result of COc1ccccc1N=c1oc2c(OC)cccc2cc1C(=O)NC(C)=O under NPYLR7 ag max-min: -5
Result of COc1ccc(NC(=O)CCC2CCCN(Cc3ccc4c(c3)OCCO4)C2)c(C)c1 (stereo unspecified) under NPYLR7 ag: 12
Result of Cc1ccccc1-n1c(C(C)N(C)C(=O)CCl)nc2ccccc2c1=O (stereo unspecified) under NPYLR7 ag: -3
Result of Cc1ccc(-c2csc(=O)n2Cc2cc(=O)n(C)c(=O)n2C)cc1 under NPYLR7 ag: 6
Result of CC(=O)Nc1ccc(S(=O)(=O)Oc2ccc(Cl)cc2CN(CC2CCCO2)C(=O)c2cccc(F)c2)cc1 (stereo unspecified) under NPYLR7 ag: 8
Result of CCN(CC)C(=O)Cn1cc(SCC(=O)NC(C)(C)C)c2ccccc21 under NPYLR7 ag: -3
Result of Cc1c(C(=O)NC2CC2)c(C(F)(F)F)nn1C1CCCN(C(C)C)C1 (stereo unspecified) under NPYLR7 ag max-min: 6

(cont.)
Structure | NPYLR7 ag | NPYLR7 ag max-min
CN(C)[C@@H]1C[C@@H](CO)N(C2CCC3(CCNCC3)CC2)C1 | -3&2 | -5&0
O=C(N/N=C1/CCN(CC(F)(F)F)C1)NC1CCCC1 | 4 | 5
O=C(c1ccco1)N(Cc1nccn1Cc1c(F)cccc1Cl)C1CC1 | 21 | 25
COc1ccc(CCOC(=O)C2CCCCN2C(=O)C(NC(=O)OCc2ccccc2)SC(C)C)cc1OC (stereo unspecified) | -14 | -22
C=CCNC(=O)C(C#N)=c1sc(=Cc2ccc(C)o2)c(=O)n1CC=C | 21 | 22
CC(C)(C)NC(=O)N1CCc2ccc(NC(=O)c3ccccn3)cc2C1 | 0&5 | -3&2
O=c1cc(CNCCCN2CCOCC2)c2cc3c(cc2o1)CCC3 | 4 | 0
Oc1cccc(-c2nccn2C2CCN(Cc3ccccc3)CC2)c1 | -4 | 9
Cc1ccc(-c2nc(C=Nc3nccs3)c(O)o2)cc1 | -2 | -14
COC(=O)C1=C(C)NC(C)=C(C(=O)OC)C1c1ccc(OC)c(Br)c1 | -13 | -19
CC1CN(C)C(=N)S1 (stereo unspecified) | -8 | -17
COc1c(C)cc(C(=O)N2CCOC(COc3ccc4c(c3)CCCC4)C2)cc1C (stereo unspecified) | 9 | 3
O=c1c(=Cc2ccco2)sc2nc3ccccc3n12 | 8 | 7
CC(C)(C)c1ccc(C(=O)NNC(=O)CC2CC3CCC2C3)cc1 (stereo unspecified) | 10 | 5
CCN(CCC1=C(C)CCCC1(C)C)CCN(C)C | -11 | -14
CCC(=O)Nc1cccc(C(=O)NCCS(C)(=O)=O)c1 | -3 | -5
CCc1c(C)nc(SCc2ccc(C)cc2)c(C#N)c1C | 31 | 31
Cc1cn2c3c(=O)n(Cc4cccc(Cl)c4)c(=O)n(C)c3nc2n1CCCn1ccnc1 | 0 | -1
CCCC(CCC)C(=O)Nc1c(C)nc2ccc(Cl)cn2c1=O | 4 | 3
CC1CC(=O)Nc2c1c(NC(=O)c1ccco1)nn2C (stereo unspecified) | -18 | -23
CC1CN(C)C(C)c2c1oc1ccc(N)cc21 (stereo unspecified) | -4 | -5
CC(C)(C)c1ccc(C(=O)N(Cc2ccc(OS(C)(=O)=O)cc2)Cc2ccco2)cc1 | 0 | 9
c1ccc(-c2cc(CSc3nnnn3C3CC3)no2)cc1 | -5 | -1
CCOC(=O)CCCC(=O)N1CCN(c2cc(S(=O)(=O)N(C)CCc3ccccc3)ccc2OC)CC1 | 3 | 2

For convenience, some entries already given:
Structure | NPYLR7 ag | NPYLR7 ag max-min
CC1CC(=O)Nc2c1c(NC(=O)c1ccco1)nn2C (stereo unspecified) | -18 | -23
CC1CN(C)C(C)c2c1oc1ccc(N)cc21 (stereo unspecified) | -4 | -5

Next section.
Structure | NPYLR7 ag | NPYLR7 ag max-min
O=C(NN1C(=O)c2cccc3cccc(c23)C1=O)c1ccn[nH]1 | -2 | -7
O=C([C@H]1CCCO1)N1CCN(c2nc(-c3ccccc3)nc3c2CCC3)CC1 | 21 | 13
Cc1cc(C)cc(NC(=O)Nc2c[nH]c3ccccc23)c1 | -3 | -8
CN(Cc1ccsc1)Cc1cc(-c2ccncc2)no1 | 0 | 0
O=C(NCCN1CCOCC1)c1ccc(CSc2nc(-c3ccccc3)cc(N3CCCC3)n2)cc1 | 5 | 16
O=C(CSc1nc(=O)[nH]c2c1CCC2)c1ccc(Cl)cc1 | 0 | -6
CC1(C(=O)Nc2ccc(Cl)c(Cl)c2)CCN1C(=O)c1ccco1 (stereo unspecified) | 6 | 5
CC(c1ccccc1)n1c(CNC(=O)c2ccco2)nc2ccccc21 (stereo unspecified) | 0 | 0
CCN(CC)Cc1c(CC(C)C)oc(C)c1C(=O)O | 1 | -2
CCc1cnc(C)nc1NCC1CC(=O)N(C2CCCC2)C1 (stereo unspecified) | 16 | 5
CC(C)Oc1nc(-c2cccc(C(F)(F)F)c2)n(-c2ccc(NC(=O)C(C)Cl)cc2)n1 (stereo unspecified) | -4 | -1
Cc1nnc2c(N3CCc4ccccc43)nc3ccccc3n12 | 12 | 9
CC(=O)C1=C(c2ccc(F)cc2)N(C(C)=O)n2c(C)nnc2S1 | 2 | 3
O=C(NCc1csc(Cc2ccccc2)n1)c1cc2n(n1)CCCNC2 | -1 | -7
COc1ccc2oc(=O)c(-c3csc(Nc4ccccc4I)n3)cc2c1 | -9 | -13
O=C(CCC1CCN(C(=O)C2=CCCCC2)CC1)NCc1cccc(C(F)(F)F)c1 | 6 | 2
CC1(C)C2CCC1(C)C(NC(=O)Nc1nnc(C3CC3)s1)C2 (stereo unspecified) | 1 | 5
COCCN(Cc1cc(NC(=O)c2ccccc2Cl)ccc1N(C)C)S(=O)(=O)c1cccc(Cl)c1 | 0 | 4
Cc1cccc2[nH]c(C3CCCN(Cc4ccccc4C(=O)O)C3)nc12 (stereo unspecified) | 2 | 0
Cc1ccc(CN(C(=O)C2CC3CCCC(C2)C3=O)c2ccc3c(c2)OCCO3)s1 (stereo unspecified) | -4 | -5
Cc1nc(CN(C)C(=O)CC(c2ccccc2)c2ccco2)no1 (stereo unspecified) | 8 | -2
CCN1C(=O)NC(c2ccccc2[N+](=O)[O-])C(C(=O)OCCc2ccccc2)=C1C (stereo unspecified) | -2 | -6
COCCN(CC(=O)N(CCc1ccc(OC)c(OC)c1)Cc1ccco1)C(=O)c1ccc([N+](=O)[O-])cc1Cl | 10 | 16
O=C1CCCN1CCC(=O)N1CCOC(c2ccc(Cl)c(Cl)c2)C1 (stereo unspecified) | 4 | 0
CCc1nc2ccc(C(=O)NCCOc3ccc(OC)cc3)cn2c1N(CC)CCOC | -7 | -6
CCN1C(=O)C(=Cc2ccccc2OC)SC1=S | 2 | -1
CNC(=O)C(C#N)C(=O)c1sc(-c2ccc(Cl)s2)nc1C (stereo unspecified) | 4 | 2
Cc1nnc(SCC(=O)NCc2cc(-c3ccco3)on2)s1 | -6 | -10
COc1cc(Br)c(/C=C2/CCn3c2nc2cc(Cl)ccc2c3=O)cc1O | 7 | 2
CC1CCCCC1NC(=O)/C=C/c1nnc2c3ccccc3cnn12 (stereo unspecified) | 3&-1 | 9&-4
COc1ccc(C(=O)N2CCN(c3ccc([N+](=O)[O-])c(N4CCCCC4)c3)CC2)cc1 | 5 | 4
COC(=O)c1cc(C(=O)OC)cc(N2C(=O)CSC2c2ccccc2C(F)(F)F)c1 (stereo unspecified) | -3 | -10
CCCN1CC(NC(=O)c2ccnc(C(C)C)n2)CC1=O (stereo unspecified) | 15 | 13
Cc1ccccc1-c1nc(C(N)=O)c2[nH]c(=O)n(-c3ccc4c(c3)OCO4)c2n1 | -12 | -15
CN1CCC(N(Cc2cccnc2)Cc2cnc(CC3CCCC3)[nH]2)CC1 | -3 | -8
O=C1CC(O)(c2ccccc2)C(c2ccccc2)=C1c1ccccc1 (stereo unspecified) | 7 | 11
COc1coc(C(=O)Nc2nc(CC(N)=O)cs2)cc1=O | 11 | 3
O=[N+]([O-])c1ccccc1N=P(N1CCOCC1)(N1CCOCC1)C12CC3CC(CC(C3)C1)C2 | -1 | -12
CN(C(=O)CSc1nc(-c2ccccc2F)nc2c1c(=O)n(C)c(=O)n2C)c1ccccc1 | 1 | -6
Cn1cnnc1SCc1ccc(C(=O)NNC(=O)c2ccccc2Cl)cc1 | 3 | -3
CCOC(=O)[C@H]1CCOCC[C@H]1N(Cc1ccccc1)C(=O)OCC(C)C | -2 | 3

Screening results: PubChem BioAssay, Fisher Drug Discovery Resource Center
